From PubChem BioAssay
rRNA inh HTS: inhibitors of bacterial rRNA selective over humanized ribosomes. 350,000 compounds, 1.6% hits. E. coli WT GFP vs humanized-ribosome RFP mutants, fluorescence, 24 h; stronger effect = lower value; DMSO median 0, no signal -100. GFP signal change (wild-type ribosome), % (no concentration beside the values);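 active = significant combined selectivity score with lowered wild-type GFP, culture density cut under 30%, mutant RFP and density less affected; inactive = any of these conditions unmet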; note: one replicate is shown; some compounds called inactive have numbers as strong as hits
AF4-AF9 inh: MLL-AF4/AF9 protein interaction inhibition. P42568. AlphaScreen, biotin-AF4 peptide binding to FLAG-AF9. inhibition, % at 10 µM. 350,000 compounds, 0.47% hits. AID 651704;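 active = every replicate reaching a set inhibition limit, whatever the replicate mean, cut at about 25% in these data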;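 note: 0% = plate neutral control median and 100% = total signal loss; the record names both 10 and 1 µM as test concentration; the first replicate is given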
Target sequence (P42568 whole entry, looked up): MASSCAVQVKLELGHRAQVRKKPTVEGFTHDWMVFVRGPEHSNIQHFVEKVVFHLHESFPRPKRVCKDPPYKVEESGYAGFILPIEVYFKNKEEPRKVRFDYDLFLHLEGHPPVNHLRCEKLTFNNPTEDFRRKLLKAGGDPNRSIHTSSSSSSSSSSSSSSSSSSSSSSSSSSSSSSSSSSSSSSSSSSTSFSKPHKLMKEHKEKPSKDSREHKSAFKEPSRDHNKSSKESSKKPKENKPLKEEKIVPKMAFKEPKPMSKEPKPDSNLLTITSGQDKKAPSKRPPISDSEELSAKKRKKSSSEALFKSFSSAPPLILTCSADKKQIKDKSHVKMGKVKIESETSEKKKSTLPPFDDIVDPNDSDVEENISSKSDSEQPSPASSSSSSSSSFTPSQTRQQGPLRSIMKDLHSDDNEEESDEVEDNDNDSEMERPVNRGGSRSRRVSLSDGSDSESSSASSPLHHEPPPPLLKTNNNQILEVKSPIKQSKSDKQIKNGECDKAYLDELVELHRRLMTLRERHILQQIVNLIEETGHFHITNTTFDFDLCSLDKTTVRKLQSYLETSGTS
rRNA inh HTS OD600: recorded beside rRNA inh HTS, whose call it bears; OD600 change, %; measured here: OD600 growth;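 optical density of the mix in the first replicate; 0 = DMSO median and -100 = no signal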
rRNA inh HTS RFP: also measured in rRNA inh HTS; calls as there; RFP signal change, %; measured here: RFP humanized mutant strains;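 first replicate; 0 = DMSO median and -100 = no signal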
* = called active by the depositor; & = joins results of further samples.

item	rRNA inh HTS	rRNA inh HTS OD600	rRNA inh HTS RFP	AF4-AF9 inh	SMILES
1	-1	-17	8.7	7.3	C[C@@H]1CN([C@H](C)CO)C(=O)Cc2cc(NC(=O)Cn3cnnn3)ccc2O[C@@H]1CN(C)Cc1ccc(-c2ccccc2)cc1
2	1	1	-0.4	-1.9	COc1ccccc1-c1ccc([C@@H]2[C@@H](CO)N3CCCCN(S(=O)(=O)c4cn(C)cn4)C[C@H]23)cc1
3	-14	-19	19	6.4	CO[C@H]1CN(C)C(=O)c2ccc(NC(=O)c3nc4ccccc4s3)cc2OC[C@@H](C)N(Cc2ccncc2)C[C@@H]1C
4	1	8	-3.3	-4.9	C[C@H](CO)N1C[C@H](C)[C@H](CN(C)C(=O)Nc2ccc(C(F)(F)F)cc2)OCCCC[C@H](C)Oc2ccc(NC(=O)NC3CCCCC3)cc2C1=O
5	2	2	0.9	-2.6	CN1C(=O)c2cc(NC(=O)C3CCCCC3)ccc2OC[C@H]2O[C@@H](CC(=O)NC3CCCC3)CC[C@@H]21
6	1	4	0.8	-5.3	C[C@H]1CN([C@@H](C)CO)C(=O)c2cc(-c3ccc(F)cc3)cnc2O[C@@H]1CN(C)Cc1ccccn1
7	2	9	-2.7	-2.3	COCC(=O)N1CC(=O)N2[C@@H](CO)[C@H](c3ccc(-c4ccncc4)cc3)[C@@H]2C1
8	0	6	-1.8	5.4	CN(C)C(=O)c1ccc(-c2ccc([C@@H]3[C@@H](CO)N4C(=O)CN(C(=O)CC5CC5)C[C@H]34)cc2)cc1
9	6	8	0.7	-2.2	CC(=O)Nc1cc(-c2cccc(C(=O)N(C)C)c2)cn2c(-c3cccc(C(=O)N(C)C)c3)cnc12
10	-4	7	3.4	-6.9	C[C@H](CO)N1C[C@H](C)[C@@H](CN(C)C(=O)Cc2ccccc2)Oc2cc(C#Cc3ccccc3F)ccc2S1(=O)=O
11	-19	-51	19	-1.5	Cc1cccc(S(=O)(=O)N2C[C@@H](O)COC[C@@H]3O[C@@H](CC(=O)Nc4ccc(-c5ccccc5)cc4)CC[C@H]32)c1
12	5	2	0.5	-1.9	C[C@H](CO)N1C[C@H](C)[C@@H](CN(C)Cc2ccccc2)OCc2cn(nn2)CCCC1=O
13	-3	-16	-3.1	0.2	O=C(NCC(O)c1nc2ccccc2[nH]1)c1ccc(Br)cc1 (configuration not stated)
14	1	-2	1.0	-3.9	C[C@@H]1CN([C@H](C)CO)C(=O)Cc2cc(NC(=O)Cc3cn(C)c4ccccc34)ccc2O[C@@H]1CN(C)C(=O)Nc1ccc(F)cc1
15	-1	-7	-1.0	0.9	CC(=O)NC(c1ccccc1)c1nc(-c2ccc(C)c(C)c2)cs1 (configuration not stated)
16	1	-3	0.4	-4.1	O=C(N[C@H]1CC[C@@H](CCn2cc(C3CCCC3)nn2)O[C@@H]1CO)c1cccnc1
17	10&0	8&-2	0.1&-1.3	-0.5&0.1	C[C@@H]1CN([C@H](C)CO)C(=O)c2cc(Br)cnc2O[C@H]1CN(C)C(=O)Cc1ccccc1
18	-1	3	0.9	-3.9	COCC(=O)N(C)C[C@@H]1Oc2ncc(-c3ccc(C#N)cc3)cc2C(=O)N([C@H](C)CO)C[C@H]1C
19	3	17	-0.5	-2.4	C[C@H](CO)N1C[C@H](C)[C@@H](CN(C)C(=O)c2ccccc2F)Oc2ncc(-c3ccncc3)cc2C1=O
20	-4	-12	2.2	-1.4	O=C(C[C@H]1CC[C@@H]2NC[C@H](O)COC[C@H]2O1)NCCc1ccccc1
21	-7	-4	7.8	-1.0	O=C(CC1CC1)N[C@H]1CC[C@H](CCNS(=O)(=O)c2ccc(Cl)cc2)O[C@H]1CO
22	-2	0	-3.2	-2.8	C[C@@H]1CN([C@H](C)CO)C(=O)c2cc(NS(=O)(=O)c3ccc(F)cc3)ccc2O[C@@H](C)CCCCO[C@@H]1CN(C)Cc1ccc(C(=O)O)cc1
23	15	19	-0.1	-2.8	COc1ccc(CN2C[C@@H](CO)O[C@@H](n3cnc4c(N5CCN(CCO)CC5)ncnc43)C2)cc1
24	12	17	1.6	-7.2	CCNC(=O)C1(C)CCCN1C(=O)c1cc(OC)c(OC)c(OC)c1 (configuration not stated)
25	3	4	4.4	-22	C[C@@H]1CN([C@H](C)CO)C(=O)Cc2cc(NC(=O)Nc3ccc(C(F)(F)F)cc3)ccc2O[C@H]1CN(C)C(=O)Nc1cccc2ccccc12
26	4	6	-0.4	-1.8	CC(C)N(C)c1ncnc2c1ncn2[C@H]1CN(Cc2ccc(Cl)cc2)C[C@@H](CO)O1
27	0&16	4&5	2.6&1.1	-2.1&1.0	C[C@@H]1CCCCO[C@@H](CN(C)C(=O)Nc2ccc(F)cc2)[C@@H](C)CN([C@H](C)CO)C(=O)c2cc(NC(=O)Nc3ccc4c(c3)OCO4)ccc2O1
28	-3	-9	-0.7	-0.2	C[C@@H]1CN([C@@H](C)CO)C(=O)Cc2cc(NC(=O)NC3CCCCC3)ccc2O[C@@H]1CN(C)Cc1ccccc1
29	0	-13	3.5	21	COc1ccc(CN(C)C[C@@H]2OCCCC[C@H](C)Oc3ccc(NC(=O)Nc4ccc5c(c4)OCO5)cc3C(=O)N([C@@H](C)CO)C[C@H]2C)cc1
30	-1	-3	-0.6	-25	N#C[C@H]1[C@@H](c2ccc(-c3cccc(F)c3)cc2)[C@H](CO)N1C(=O)CN1CCOCC1
31	3	1	0.4	-0.4	CN(C)C(=O)C[C@H]1C=C[C@@H](NC(=O)NC2CCCCC2)[C@@H](CO)O1
32	2	15	2.3	5.3	C[C@@H]1CN([C@H](C)CO)C(=O)c2cc(/C=C/c3ccccc3)cnc2O[C@@H]1CN(C)C(=O)Nc1ccccc1F
33	3	5	-2.8	2.3	CCC(=O)N1CC2(CN(C(=O)NC(C)C)C2)c2c(n(C)c3cc(OC)ccc23)[C@H]1CO
34	-3	1	-0.1	-17	C[C@H]1CN([C@@H](C)CO)C(=O)c2cccc(NC(=O)Nc3ccc(F)cc3)c2O[C@@H]1CN(C)Cc1ccc(C(=O)Nc2ccccc2N)cc1
35	9	15	-0.5	0.3	CC(N)c1csc(Nc2ccc(C(=O)NCCCO)cn2)n1 (configuration not stated)
36	4	3	1.1	1.5	COCCNC(=S)N1CCC(C(=O)c2ccc(F)cc2)CC1
37	-2	12	1.6	4.6	C/C=C/c1ccc([C@@H]2[C@@H](CO)N3C(=O)CN(Cc4ccc(F)cc4)C[C@H]23)cc1
38	-6	-7	2.5	1.0	COc1ccc(CNS(=O)(=O)CCNCCc2ccccc2)cc1
39	5	6	1.0	-1.3	C[C@H]1CN([C@@H](C)CO)C(=O)c2cc(C#Cc3ccccn3)cnc2O[C@H]1CN(C)C(=O)CCN1CCCCC1
40	0	0	-1.8	-0.5	O=C(O)C[C@@H]1CC[C@H](NC(=O)CCN2CCCCC2)[C@H](CO)O1
41	1	-2	-0.9	-3.6	C[C@@H]1CN([C@@H](C)CO)C(=O)Cc2cc(NS(=O)(=O)c3cn(C)cn3)ccc2O[C@H]1CN(C)C(=O)Nc1ccc2c(c1)OCO2
42	-1	-5	-2.0	-0.3	CC(O)(c1cccnc1)c1nc(-c2cccc(F)c2)cs1 (configuration not stated)
43	0	0	-1.1	1.0	C[C@@H]1CN([C@H](C)CO)C(=O)CCCn2nncc2CO[C@H]1CN(C)C(=O)Nc1cccc(F)c1
44	-6	4	-2.0	8.4	CCOC(=O)C1=C[C@@H](CC)N(S(=O)(=O)c2ccc([N+](=O)[O-])cc2)[C@H]1c1ccccc1
45	-4	-4	-4.0	-2.3	O=C(C[C@@H]1C=C[C@H](NS(=O)(=O)c2ccc(F)cc2)[C@@H](CO)O1)N1CCN(c2ccccc2)CC1
46	-49	-64	-12	10	C[C@@H]1CN([C@H](C)CO)S(=O)(=O)c2ccc(-c3ccccc3F)cc2O[C@H]1CN(C)Cc1ccncc1
47	-1	2	-4.2	2.9	CC(C)NC(=O)Nc1ccc2c(c1)CC(=O)N([C@H](C)CO)C[C@@H](C)[C@H](CN(C)Cc1ccc(C(=O)Nc3ccccc3N)cc1)O2
48	-1	9	6.5	2.2	CCC(=O)Nc1ccc2c(c1)C(=O)N(C)[C@@H]1CC[C@@H](CC(=O)NCc3ccc(OC)cc3)O[C@H]1CO2
49	-8	-16	3.2	5.9	CC(C)CC#Cc1ccc2c(c1)O[C@H](CN(C)C(=O)c1ccccc1)[C@@H](C)CN([C@@H](C)CO)S2(=O)=O
50	1	-11	-1.5	-0.3	COc1cc(CNc2ncnc3c2ncn3[C@H]2CN(Cc3cccc(C(F)(F)F)c3)C[C@@H](CO)O2)cc(OC)c1OC

Some of the entries so far, in transposed form:
32	C[C@@H]1CN([C@H](C)CO)C(=O)c2cc(/C=C/c3ccccc3)cnc2O[C@@H]1CN(C)C(=O)Nc1ccccc1F
33	CCC(=O)N1CC2(CN(C(=O)NC(C)C)C2)c2c(n(C)c3cc(OC)ccc23)[C@H]1CO
34	C[C@H]1CN([C@@H](C)CO)C(=O)c2cccc(NC(=O)Nc3ccc(F)cc3)c2O[C@@H]1CN(C)Cc1ccc(C(=O)Nc2ccccc2N)cc1
35	CC(N)c1csc(Nc2ccc(C(=O)NCCCO)cn2)n1 (configuration not stated)
36	COCCNC(=S)N1CCC(C(=O)c2ccc(F)cc2)CC1
37	C/C=C/c1ccc([C@@H]2[C@@H](CO)N3C(=O)CN(Cc4ccc(F)cc4)C[C@H]23)cc1
38	COc1ccc(CNS(=O)(=O)CCNCCc2ccccc2)cc1

| compound no. | 32 | 33 | 34 | 35 | 36 | 37 | 38 |
| --- | --- | --- | --- | --- | --- | --- | --- |
| rRNA inh HTS | 2 | 3 | -3 | 9 | 4 | -2 | -6 |
| rRNA inh HTS OD600 | 15 | 5 | 1 | 15 | 3 | 12 | -7 |
| rRNA inh HTS RFP | 2.3 | -2.8 | -0.1 | -0.5 | 1.1 | 1.6 | 2.5 |
| AF4-AF9 inh | 5.3 | 2.3 | -17 | 0.3 | 1.5 | 4.6 | 1.0 |

39	C[C@H]1CN([C@@H](C)CO)C(=O)c2cc(C#Cc3ccccn3)cnc2O[C@H]1CN(C)C(=O)CCN1CCCCC1
40	O=C(O)C[C@@H]1CC[C@H](NC(=O)CCN2CCCCC2)[C@H](CO)O1
41	C[C@@H]1CN([C@@H](C)CO)C(=O)Cc2cc(NS(=O)(=O)c3cn(C)cn3)ccc2O[C@H]1CN(C)C(=O)Nc1ccc2c(c1)OCO2

| compound no. | 39 | 40 | 41 |
| --- | --- | --- | --- |
| rRNA inh HTS | 5 | 0 | 1 |
| rRNA inh HTS OD600 | 6 | 0 | -2 |
| rRNA inh HTS RFP | 1.0 | -1.8 | -0.9 |
| AF4-AF9 inh | -1.3 | -0.5 | -3.6 |

(cont.)
item	rRNA inh HTS	rRNA inh HTS OD600	rRNA inh HTS RFP	AF4-AF9 inh	SMILES
51	2	-9	3.5	6.7	CCCC#Cc1ccc([C@H]2[C@H]3CN(CC4CCOCC4)CCCCN3[C@H]2CO)cc1
52	2	3	1.3	-1.1	CCC(=O)N1C[C@@H](C)[C@@H](OC)CN(C)C(=O)c2ccc(NC(=O)C3CC3)cc2OC[C@H]1C
53	-2	-5	-0.7	0.4	O=C1N[C@@H](c2ccccc2)COCc2cn(nn2)CC[C@@H]1Cc1ccccc1
54	-2	7	-0.3	-14	Cc1ccc(S(=O)(=O)N[C@H]2CC[C@@H](CCn3cc(C4CCCC4)nn3)O[C@@H]2CO)cc1
55	1	-2	-0.6	1.0	CO[C@H]1CN(C)C(=O)c2cc(NC(=O)C3CCC3)ccc2OC[C@@H](C)N(Cc2cccnc2)C[C@H]1C
56	-5	-2	0.2	0.1	CCC(=O)N(C)C[C@H]1Oc2ncc(C#Cc3ccccc3)cc2C(=O)N([C@H](C)CO)C[C@@H]1C
57	-1	-1	-5.2	-1.6	O=C(NCc1cccnc1)c1cc(C2CCCN(C(=O)c3cccs3)C2)on1 (configuration not stated)
58	0	2	-2.0	0.3	CN(C)CC(=O)N[C@H]1CC[C@@H](CC(=O)NCc2ccc(Cl)cc2)O[C@@H]1CO
59	-1	-2	0.7	-3.5	CCC(=O)NC[C@H]1N[C@H](CO)[C@@H]1c1ccc(-c2ccccc2F)cc1
60	3	11	-2.3	-2.7	Cc1noc(C)c1NC(=O)Nc1ccc2c(c1)C(=O)N([C@H](C)CO)C[C@H](C)[C@H](CN(C)C(=O)Nc1ccccc1)OCCCC[C@@H](C)O2
61	-2	-3	-0.8	-4.2	COc1ccc(NC(=O)N2C[C@@H](O)COC[C@H]3O[C@H](CC(=O)NC4Cc5ccccc5C4)CC[C@@H]32)cc1
62	-25	-47	-5.4	1.3	CCCCn1nnnc1C(c1ccccc1)N1CCN(Cc2c(F)cccc2Cl)CC1 (configuration not stated)
63	3	17	0.0	-6.1	O=C(NC1CCCC1)N1CCCCN2[C@H](CO)[C@H](c3ccc(-c4cncnc4)cc3)[C@@H]2C1
64	1	1	-2.6	-8.5	CO[C@H]1CN(C)C(=O)c2ccc(NC(=O)C3CC3)cc2OC[C@@H](C)N(CC2CC2)C[C@@H]1C
65	2	0	-1.9	-0.3	C[C@@H](NC(=O)C[C@@H]1C[C@H]2c3cc(NC(=O)CN(C)C)ccc3O[C@H]2[C@@H](CO)O1)c1ccccc1
66	-2	3	-0.4	2.0	COc1cccc(-c2cn(CC[C@@H]3CC[C@H](NC(=O)CC4CC4)[C@@H](CO)O3)nn2)c1
67	7	11	-3.7	0.0	COCC(=O)N1CC2(CCN(C(C)=O)CC2)c2c([nH]c3cc(OC)ccc23)[C@@H]1CO
68	1	0	-1.4	0.2	CC(C)NC(=O)N(C)C[C@@H]1Oc2ncc(C#CC3CCCC3)cc2C(=O)N([C@H](C)CO)C[C@H]1C
69	-32	-70	-7.6	0.7	Cc1ccc([C@@H]2CC=C(C(=O)O)[C@H](c3ccc(Br)cc3)N2S(=O)(=O)c2ccc(C)cc2)cc1

Some of the compounds tested. The share of hits here may be higher or lower than overall.
